Compound activity (PubChem)
Menin-MLL FL inh – qHTS Assay for Inhibitors Targeting the Menin-MLL Interaction in MLL Related Leukemias: Competition With Fluorescein Labeled MLL-derived Peptide. AID 1766, 2009. 290,000 tested, under 10 active. Fluorescence polarization, fluorescein-MLL peptide displacement from menin. FP activity change, % at 61.4 µM; inconclusive = falling polarisation curve, or a change in total fluorescence; inactive = total fluorescence flat and polarisation flat or rising; no compound was filed as active; the % refers to the polarisation; negative = inhibition;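 note: % of control where 0% means no effect; inhibitors lower the polarisation; unlabelled MLL peptide was the positive control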
TRPML1 agonist – qHTS for Agonists of the Human Mucolipin Transient Receptor Potential 1 (TRPML1) | TRPML1-expressing cells, Ca2+ dye fluorescence, FDSS; host cell line not named in the record; reference of the full effect not given here | activation, % (no concentration beside the values) | 410,000 compounds, 0.12% hits; in the data active = activation above about 50%; inconclusive = about 30% to 50%; inactive = below about 30%; note: 0% is about no effect; the text of the record puts the active cut at 80%
Target sequence (Q9GZU1 whole entry, looked up): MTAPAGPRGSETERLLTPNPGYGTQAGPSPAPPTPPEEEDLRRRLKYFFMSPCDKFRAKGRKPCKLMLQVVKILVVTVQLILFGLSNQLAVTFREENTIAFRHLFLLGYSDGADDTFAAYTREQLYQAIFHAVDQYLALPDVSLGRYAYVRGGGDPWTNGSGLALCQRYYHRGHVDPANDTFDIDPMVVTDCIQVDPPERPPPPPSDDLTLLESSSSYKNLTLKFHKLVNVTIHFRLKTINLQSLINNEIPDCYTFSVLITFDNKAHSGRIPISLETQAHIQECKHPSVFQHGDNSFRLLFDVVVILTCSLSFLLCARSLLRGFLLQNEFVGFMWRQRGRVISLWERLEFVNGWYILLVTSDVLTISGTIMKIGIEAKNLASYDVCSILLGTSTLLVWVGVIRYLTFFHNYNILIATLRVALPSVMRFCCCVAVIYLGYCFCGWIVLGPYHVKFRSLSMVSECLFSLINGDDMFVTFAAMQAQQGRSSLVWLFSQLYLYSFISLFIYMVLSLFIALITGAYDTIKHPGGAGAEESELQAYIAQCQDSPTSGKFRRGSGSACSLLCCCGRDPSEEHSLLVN
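Tetracycline-induced TRPML1-DL cells are seeded and incubated overnight before loading with a no-wash Ca2+ dye and quencher. Agonist activity is taken from the 110 s fluorescence read following compound pin-transfer on an FDSS, before EC80 54-4 challenge.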
gsp agonist – qHTS for Agonist of gsp, the Etiologic Mutation Responsible for Fibrous Dysplasia/McCune-Albright Syndrome: qHTS; gsp mutant cells, cAMP HTRF, 30 min; control for the full effect not named in the record; Potency, µM (highest dose often 76.9 µM), without a hit: top-dose activation (cAMP increase), hits mostly activators; 340,000 compounds, 0.13% hits; active = well fitted activation curve with a large enough effect; inconclusive = small, poorly fitted or top-dose-only effect, or another doubt; inactive = no such curve, though single readings can be large or run the other way; cell line not stated here;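 note: phosphodiesterase inhibitor Ro 20-1724 added with compounds to block cAMP breakdown; potency is the fitted concentration of half-maximal effect; nearly all actives have a fitted effect of over 60% in size; about a fifth of the inactives were tested at one dose only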
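Cells in DMEM/10% FBS with G418 were pretreated with compounds in DMSO plus […] (300 uM stock) for 30 min at 37C. cAMP was measured by HTRF (cAMP-d2 plus anti-cAMP antibody-K) after 30 min at room temperature.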
gsp antag – qHTS for Antagonists of gsp, the Etiologic Mutation Responsible for Fibrous Dysplasia/McCune-Albright Syndrome: qHTS; gsp-mutant cells, cAMP HTRF, 30 min; control for the full effect not named in the record; Potency, µM (doses to about 76.9 µM), inactives show at the top dose activity change, negative = inhibition, hits mostly inhibitors; 340,000 compounds, 0.4% hits; active = falling curve of any shape with a large fitted effect; inconclusive = falling curve, mostly with a smaller effect; inactive = flat or rising curve; cell line not stated here;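 note: intracellular cAMP measured with PDE inhibitor Ro 20-1724 present during compound exposure; potency is the fitted concentration of half-maximal effect; % is set by controls: 0 for no effect and ±100 for the full control effect; nearly all actives have a fitted effect of over 65% in size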
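Cells, 2000/well, grown 16–24 h in DMEM 10% FBS with 0.5 mg/ml G418, then compounds plus […] (300 uM addition stock), 30 min at 37C. cAMP read by HTRF (cAMP-d2 and anti-cAMP antibody-K in lysis buffer) after 30 min RT.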
ClpP mod – qHTS Assay for Activators of ClpP; ATP-dependent Clp protease proteolytic subunit (Bacillus subtilis (strain 168)), P80244; purified B. subtilis ClpP, FRET peptide cleavage, 20 min; Potency, µM (highest dose often 57.5 µM), for inactives: at the top dose activity change, negative = active; 340,000 compounds, 1.9% hits; AID 651965, 2013; active = well fitted falling curve with a large enough effect; inconclusive = small, poorly fitted or top-dose-only effect; inactive = no such curve, though single readings can be large or run the other way; note: potency is the fitted concentration of half-maximal effect; the source files actives as falling curves though it sought activators and does not explain the sign; nearly all actives have a fitted effect of over 65% in size; many hits overshoot -100%
Target sequence (P80244 whole entry, looked up): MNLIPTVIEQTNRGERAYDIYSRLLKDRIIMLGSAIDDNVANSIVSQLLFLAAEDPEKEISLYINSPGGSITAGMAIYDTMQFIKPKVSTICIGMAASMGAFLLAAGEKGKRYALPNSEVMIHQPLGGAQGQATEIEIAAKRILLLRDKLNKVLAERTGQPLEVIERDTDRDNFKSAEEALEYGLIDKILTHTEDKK
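Purified B. subtilis ClpP, 10 microg/mL final in Tris/HCl pH8 with KCl, BSA, glycerol and Tween-20, cleaved an Abz/nitrotyrosine-quenched decapeptide. Fluorescence (ex 320, em 430) was read at 0 and 20 min at room temperature. Delta was normalized to 5.8 microM ADEP and DMSO/no-enzyme controls.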
TRPML1 blocker – qHTS for Inhibitors of the Human Mucolipin Transient Receptor Potential 1 (TRPML1) | Mucolipin-1 (Homo sapiens), Q9GZU1 | TRPML1-inducible cells, Ca2+ dye fluorescence, FDSS; active compounds read low; inhibition of EC80 agonist-evoked calcium signal | activity change, negative = inhibition, % (test concentration not listed) | 390,000 compounds, 0.02% hits; in the data active means activity change below about -50%; inconclusive means about -30% to -50%; inactive means above about -30%;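 note: stimulus is agonist 54-4 at its EC80 concentration; % is set by controls: 0 for no effect and ±100 for the full control effect; compound concentration not given in the record; the text of the record puts the active cut at -80%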
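Calcium fluorescence in TRPML1-DL cells induced overnight with Tet: a 110 s read after compound pin addition, then a 110 s antagonist read after challenge with 54-4 at 4 uM final (EC80).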
* marks the source's active call; other numbers are inactive results; ? = inconclusive; · = no result given; & = joins results of further samples; [ ] = another dose, or the depositor's remark.

Results follow in this order: Menin-MLL FL inh	TRPML1 agonist	gsp agonist	gsp antag	ClpP mod	TRPML1 blocker
1: CCOc1cc(NC(=S)NCCCN(C)C)c(OCC)cc1NC(=O)c1cccs1
  -0.8	-0.2	?	3.8%	-1.0%	-5.4
2: O=C(Nc1ccccc1F)c1ccc(Cn2cc(Cl)cn2)cc1
  -1.9	-0.7	-56.8%[inhibitor]	-4.4%	·	3.9
3: CCCCCCCN1C=CC(=O)CC1
  -2.9	-0.7	·	3.1%	0.0%	-1.2
4: O=C(COc1ncnc2ccccc12)NC1CCCC1
  ·	-0.3	?	-0.4%	-2.7%	28.9
5: Cc1cc(=O)n2nc(N3CCCC(C(=O)N4CCc5ccccc54)C3)sc2n1 (configuration not stated)
  0.3	-0.2	?	9.3%	-0.8%	9.1
6: N/C(=N\OC(=O)c1cccc2ccccc12)c1ccccn1
  1.9	0.8	4.5%[15.4 µM]	2.5%	·	23.4
7: C=CCn1c(SCC(=O)Nc2ccccc2C)nnc1-c1ccncc1
  0.8	-1.2	3.5%	-2.8%	-1.2%	3.2
8: O=C(O)CCC(=O)Nc1ccc(C(=O)OC2CCCCC2)cc1
  3.7	-0.2	-52.2%[inhibitor]	-4.6%	-0.2%	-9.2
9: CCC(CC)C(=O)Nc1c2c(nn1-c1ccc(OC)cc1)CS(=O)(=O)C2
  2.4	0.4	-16.8%	-2.9%	-1.1%	-5.7
10: CN(C)CCCN1C(=O)c2oc3ccccc3c(=O)c2C1c1cccs1 (configuration not stated)
  ?	4.6	-32.0%[inhibitor]	-1.6%	-15.5%	0.1
11: Cc1cc(C)[n+](-c2ccc(Oc3ccccc3)c(S(=O)(=O)[O-])c2)[nH]1
  1.9	-0.1	48.0%[15.4 µM]	12.6%	-0.6%	-0.3
12: O=C(CCc1ccccc1)Nc1nnc(-c2ccc3c(c2)CCCC3)o1
  -2.7	-0.7	27.3%	2.8%	-3.9%	-10.4
13: CC(=O)N(CCOc1ccccc1)CCOc1ccccc1
  ·	-0.6	-1.6%	6.6%	-0.6%	-3.8
14: NC(=O)CC(NC(=O)Cc1cccc2ccccc12)c1ccc(NCc2ccccc2)c([N+](=O)[O-])c1 (configuration not stated)
  0.5	0.5	33.8%	5.5%	0.3%	-20.1
15: CCCCN(CCCC)c1ccc(C(=O)c2ccccc2C(=O)O)c(O)c1
  3.7	4.9	-12.8%	-19.3%	1.6%	1.4
16: CC(NCc1ccccc1Cl)C(=O)Nc1ccc(C#N)cc1 (configuration not stated)
  -0.3	1.9	-0.4%[15.4 µM]	-1.4%	·	50.9
17: CCC1CCc2sc(C(=O)N(C)CC(=O)Nc3ccc(N4CCOCC4)cc3)cc2C1 (configuration not stated)
  ·	0.2	-6.5%	3.2%	0.4%	0.0
18: COc1ccc(CC(=O)NCc2n[nH]c(=S)n2-c2cccc(Cl)c2)cc1
  -0.5	1.1	?	-4.2%	-0.3%	-13.0
19: CC(C)(C)OC(=O)N[C@@H](Cc1ccccc1)c1nnc(SCC(N)=O)o1
  5.3	0.2	?	5.4%	-0.4%	?
20: O=C(Nc1cccnc1Cl)c1cc2ccccc2o1
  -6.0	·	-32.5%[inhibitor]	-1.1%	0.7%	·
21: O=C(O)c1cc2c(ccc3ccccc32)o1
  1.9	0.2	-39.0%[inhibitor]	-25.1%	28.2µM*	19.8
22: c1ccc(CSC2=NCCCN2)cc1
  -4.2	2.7	-2.4%	-0.6%	-0.7%	-13.7
23: COc1ccccc1N1CCN(C(=O)c2cc(-c3cccs3)on2)CC1
  -0.3	0.7	0.3%	5.0%	1.0%	9.7
24: COc1ccc(NC(=O)CSc2nc3ccsc3c(=O)n2Cc2ccccn2)c(OC)c1
  -4.3	-0.3	-8.1%[15.4 µM]	-46.6%	·	-0.3
25: Cc1nn(CC(=O)NCCc2ccccc2)c(C)c1[N+](=O)[O-]
  -0.4	0.1	-16.0%[15.4 µM]	12.0%	1.7%	-0.9
26: CCN(CC(=O)N1CCOCC1)S(=O)(=O)c1ccc(C)cc1
  3.2	-0.3	-2.7%	7.9%	-1.2%	7.2
27: O=S(=O)(Nc1ccncc1Cl)c1cc(Cl)ccc1Cl
  0.1	2.2	-25.2%	-9.2%	-3.8%	13.2
28: CCc1nnc(NS(=O)(=O)c2ccc(NCc3ccccc3O)cc2)s1
  0.1	0.8	15.4%[15.4 µM]	-4.3%	·	23.6
29: COc1ccc(CCN2C(=O)c3[nH]nc(-c4ccccc4O)c3C2c2ccc(OC)c(OC)c2)cc1 (configuration not stated)
  ·	2.7	·	·	-0.3%	2.7
30: Cc1csc(NC(=O)[C@@H](NC(=O)c2ccccc2)C(C)C)n1
  0.4	0.3	0.8%	6.1%	0.6%	-16.9
31: CCCc1cc(=O)oc2c(C)c(OCC(=O)Nc3ccccn3)ccc12
  ·	-0.5	0.0%	7.7%	4.0%	1.8
32: COc1ccc(NC(=O)COc2ccc(N(C)S(=O)(=O)c3ccc(C)cc3)cc2)cc1
  -4.1	1.1	6.1%[15.4 µM]	-15.6%	-0.3%	8.3
33: CCn1c(-c2nonc2NC(=O)c2ccccc2)nc2ccccc21
  0.4	0.9	-9.4%	2.2%	-3.6%	35.0
34: COc1ccc(NC(=O)CNC(=O)Cn2c(C)cc3ccccc3c2=O)c(OC)c1
  -1.3	-1.3&-0.7	12.2%[15.4 µM]	-18.6%	-21.4%	-1.3&11.4
35: CC1(C)C(=O)NC(=O)N1Cc1ccccc1
  ·	-0.6	-8.4%	-0.5%	0.9%	33.4
36: CCCC(=O)NC(c1ccc2c(c1)OCO2)c1cc(Cl)c2cccnc2c1O (configuration not stated)
  1.2	1.9	-2.3%	5.6%	2.9%	13.8
37: CCn1c(NN)nc2sc3c(c2c1=O)CCC3
  5.8	1.0	-22.3%	0.9%	-2.1%	7.6
38: CCC[N+]1(CC#CC2(O)CCCCC2)CCOCC1
  -1.2	1.0	-30.9%	2.0%	-1.4%	8.1
39: CC(C)CC(NC(=O)C(NC(=O)C(Cc1ccc(OCc2ccccc2)cc1)NC(=O)OC(C)(C)C)C(C)C)C(N)=O (configuration not stated)
  4.4	-0.6	1.3%	3.8%	-1.1%	39.9
40: COc1ccc(Nc2nnc(SC(C(=O)Nc3cc(C)ccc3C)c3ccccc3)s2)cc1 (configuration not stated)
  -2.1	3.1	-6.4%[15.4 µM]	?	·	17.0
41: O=C(N/N=C/c1cc(Cl)cc([N+](=O)[O-])c1O)C1CC1
  6.5	-0.7	-8.5%	-6.3%	0.9%	-8.0
42: O=C(CCn1ccc2cc(S(=O)(=O)N3CCCC3)ccc21)NCc1ccccc1Br
  ·	-0.4	·	·	-2.6%	12.6
43: O=C(CN1C(=O)c2ccccc2Sc2ccc(C(=O)N3CCOCC3)cc21)Nc1ccc(Cl)cc1F
  ·	0.5	·	·	-0.3%	-7.7
44: CCN(c1ccccc1)S(=O)(=O)c1ccc(OC)c(NC(=O)C2=NN(c3ccccc3)C(=O)CC2)c1
  ·	0.4	-2.6%[15.4 µM]	-34.7%	0.4%	14.5
45: Cc1ccc(C)c(OCCCCN2CCNCC2)c1C
  -6.4	-0.8	-21.2%	15.5%	0.3%	34.5
46: Cc1ccc(S(=O)(=O)NCC(c2ccco2)S(=O)(=O)c2ccccc2)cc1 (configuration not stated)
  ·	1.2	-0.8%[15.4 µM]	-7.3%	·	8.0
47: CC1(C)CC(=O)c2cnc(N3CCc4ccccc43)nc2C1
  6.4	0.4	-10.1%[15.4 µM]	-23.0%	·	-18.4
48: COc1ccc([C@@H]2C[C@H]3[C@@H](CN2S(=O)(=O)c2ccccc2)C(=O)C[C@@H](c2cccc4ccccc24)N3S(=O)(=O)c2ccc(C)cc2)cc1
  ·	1.4	?	·	0.3%	9.4
49: Cc1ccccc1-n1nc(CO)c(C(=O)NCC(c2ccccc2)c2ccccc2)n1
  ·	3.9	·	·	-12.7%	19.3
50: COc1ccc(OC)c(CNC(=O)CCC(=O)N2Cc3ccccc3Oc3ncccc32)c1
  ·	-0.9&-0.4	?	-3.6%	-2.0%&0.6%	20.6&-6.1
51: CCn1c(=O)c2sccc2n2c(CCCC(=O)N3CCN(c4cc(C)ccc4C)CC3)nnc12
  ·	-1.0	·	·	-0.4%	2.1
52: CCC(CC)c1nnc(NC(=O)C2CCN(C(=O)c3ccco3)CC2)s1
  1.2	0.1	?	-14.8%	·	-8.9
53: O=C(NCCc1ccccc1)c1cc(Sc2cccc(Cl)c2)nc2ccccc12
  ·	3.8	·	·	?	3.4
54: O=C(Cn1c(-c2cccs2)cc2ccccc21)NCCCN1CCN(c2ccc(F)cc2)CC1
  ·	-0.4	·	·	31.6µM*	-10.2
55: CCOC(=O)CC1=CCc2c1ccc(OC)c2OC
  ·	1.8	-12.1%	-0.4%	-25.3%	-8.0
56: N#Cc1ccc(CSc2nnc(NC(=O)C3CC(=O)N(c4ccc5c(c4)OCCO5)C3)s2)cc1 (configuration not stated)
  6.3	0.0	11.5%[15.4 µM]	15.5%	·	-7.6
57: O=C(COc1ccccc1Cl)Nc1ccc(C(=O)O)cc1NC(=O)COc1ccccc1Cl
  ·	0.3	-63.7%[inhibitor]	-6.7%	-1.3%	-19.8
58: COc1ccccc1N(C)S(=O)(=O)c1ccc(Cl)c(C(=O)NCc2cccnc2)c1
  ·	-0.5	-6.4%	-9.4%	1.3%	9.9
59: CC(C)C(NC(=O)c1ccc(S(=O)(=O)N2CCOCC2)cc1)c1nc2ccccc2[nH]1 (configuration not stated)
  -1.3	-0.8	2.4%	6.7%	0.8%	-6.6
60: Cc1cc(C)c(NC(=O)CN2C(=O)NC3(CCc4ccccc43)C2=O)c(Cl)c1 (configuration not stated)
  ·	-0.2	-24.0%	2.3%	-0.8%	-8.6

Additional structures follow:
Results follow in this order: Menin-MLL FL inh	TRPML1 agonist	gsp agonist	gsp antag	ClpP mod	TRPML1 blocker
61: CN1CCC(N(C)C(=O)c2ccc(Cl)c(S(=O)(=O)N3CCOCC3)c2)CC1
  ·	-0.2	3.0%	12.1%	-1.5%	76.2
62: Cc1cc(-n2cnc(-c3cn(C)nc3C)n2)no1
  2.3	0.7	-7.3%[15.4 µM]	8.2%	·	8.1
63: O=C(O)CCn1cnc2onc(-c3ccccc3Cl)c2c1=O
  ·	0.0	·	·	-3.7%	0.4
64: CC(C)CN(C(=O)CC1OC(=O)c2ccccc21)c1c(N)n(Cc2ccccc2)c(=O)[nH]c1=O (configuration not stated)
  ·	-0.2	-3.0%[15.4 µM]	10.6%	19.3%	3.8
